RGS16-Gao HTS: modulates binding between human RGS16 and Galphao; AID 1441; O15492+P09471; binding response (% of control), % at 10 µM; hit rate 0.38% among 220,000; bead-based flow cytometry RGS16-Galphao binding, fluorescence; actives lie on both sides;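 active = below 25% or above 175%, edge rows of some plates excepted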;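 also: Galphao activated by GDP with aluminum fluoride before binding; 100% = wells without compound and 0% = beads without RGS; some results beyond the cut were filed as inactive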
Target sequence (O15492 whole entry, looked up): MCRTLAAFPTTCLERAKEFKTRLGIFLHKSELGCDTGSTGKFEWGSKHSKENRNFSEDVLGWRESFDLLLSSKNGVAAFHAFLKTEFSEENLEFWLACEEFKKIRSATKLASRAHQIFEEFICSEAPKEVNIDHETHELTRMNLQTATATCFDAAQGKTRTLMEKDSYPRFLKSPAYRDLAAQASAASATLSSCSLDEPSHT
Target sequence (P09471 whole entry, looked up): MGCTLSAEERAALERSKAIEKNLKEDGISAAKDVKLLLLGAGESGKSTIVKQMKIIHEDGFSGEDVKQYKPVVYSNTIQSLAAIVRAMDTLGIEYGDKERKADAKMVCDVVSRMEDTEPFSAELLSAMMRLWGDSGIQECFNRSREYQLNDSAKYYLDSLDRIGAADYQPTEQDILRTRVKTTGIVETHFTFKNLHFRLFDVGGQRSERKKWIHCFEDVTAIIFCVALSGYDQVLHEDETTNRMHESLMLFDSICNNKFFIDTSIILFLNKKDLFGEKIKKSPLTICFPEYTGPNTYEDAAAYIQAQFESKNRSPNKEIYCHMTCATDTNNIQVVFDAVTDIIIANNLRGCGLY
HSV replic up: HSV replication enhancement. HSV replication augmentation in cells, fold increase. maximum fold increase. hit rate 0.005% among 220,000;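 active = peak rise of 1.5-fold or more in the series; tested in PC3 cells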;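 also: first round at 10 µM; read as green reporter fluorescence; hits show the peak of a series up to 25 µM; 1 = signal of infected wells without compound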
GALR2 ag: activates the human galanin receptor 2 | O43603 | GALR2-expressing cells, agonist activation read-out | activation, %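 (tested at 5 µM)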 | hit rate 0.48% among 140,000 | AID 803;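 active = above mean plus 3 SD of all compounds, about 5% in these data, not always enough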;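 also: 0% = vehicle buffer wells and 100% = reference agonist at full effect; tested in CHO reporter cells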
Target sequence (O43603 whole entry, looked up): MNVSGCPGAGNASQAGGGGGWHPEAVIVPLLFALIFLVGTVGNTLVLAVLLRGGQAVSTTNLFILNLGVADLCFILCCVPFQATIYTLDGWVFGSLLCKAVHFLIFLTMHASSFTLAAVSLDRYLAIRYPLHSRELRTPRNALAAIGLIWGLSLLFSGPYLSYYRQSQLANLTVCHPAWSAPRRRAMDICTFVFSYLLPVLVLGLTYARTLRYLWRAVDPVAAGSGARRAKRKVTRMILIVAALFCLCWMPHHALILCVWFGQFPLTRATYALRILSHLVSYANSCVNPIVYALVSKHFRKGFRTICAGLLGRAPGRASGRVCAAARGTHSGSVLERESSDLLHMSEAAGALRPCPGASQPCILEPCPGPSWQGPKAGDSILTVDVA
Insulin prom inh: TRM-6 insulin promoter activity inhibition. inhibition, % at 2 µM. TRM-6 cells (human fetal islet line), insulin promoter-eGFP reporter, imaging; reporter expression induced with tamoxifen. hit rate 0.9% among 130,000;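 active = inhibition above the mean plus 3 SD, with well images judged a real hit on visual review, cut at about 60% in these data, passing the limit was not always enough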
PKD1 inh: blocks activity of human protein kinase D1. AID 797. PKD1 kinase fluorescence polarization assay. Q15139. inhibition, %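 (about 10 µM by stock and volumes)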. hit rate 0.056% among 200,000;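 active = inhibition of 50% or more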;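 also: controls were vehicle for no effect and a reference inhibitor for full effect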
Insulin prom inh cell count: further read-out of Insulin prom inh, marked with its call; normalized cell count, %; measured here: cell count, toxicity; reference of the scale not given here;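 cells exposed to compound for 48 h; stained nuclei by imaging scaled within each plate; lower means fewer cells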
HSV replic up primary fold: further read-out of HSV replic up, marked with its call; fold increase; compound at 10 µM; measured here: primary screen fold increase 10 uM; tested in PC3 cells;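 GFP signal in the first replicate; 1 = infected wells without compound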
* hit, by the source's call. Not a hit list; 1.3% or so of the library scored in one or more.

Results for Cc1ccc(S(=O)(=O)N2CCN(Cc3ccccc3C(F)(F)F)CC2)cc1 ?
RGS16-Gao HTS: 99; HSV replic up: inactive; GALR2 ag: -1.3; Insulin prom inh: 3; PKD1 inh: -3; Insulin prom inh cell count: 102; HSV replic up primary fold: 0.99

Results for CC1=CC(C)(C)N(C(=O)CN2C(=O)c3ccccc3C2=O)c2ccc(C)cc21 ?
RGS16-Gao HTS: 81; HSV replic up: inactive; GALR2 ag: -0.6; Insulin prom inh: -59; PKD1 inh: -6; Insulin prom inh cell count: 82; HSV replic up primary fold: 0.81

How did C=CCOC(=O)C1=C(C)OC(N)=C(C#N)C1c1ccco1 (centres undefined) do in these assays?
RGS16-Gao HTS: 99; HSV replic up: inactive; HSV replic up primary fold: 0.94

How did Cc1ccc(NC(=O)c2ccccc2-c2cc(C)no2)cc1 do in these assays?
RGS16-Gao HTS: 102; HSV replic up: inactive; Insulin prom inh: 42; PKD1 inh: 3; Insulin prom inh cell count: 123; HSV replic up primary fold: 1.1

How did O=C(C1=C[C@@H](C2CCCCC2)C[C@@H](OCc2ccc(CO)cc2)O1)N1CCN(Cc2ccccc2)CC1 do in these assays?
RGS16-Gao HTS: 102; HSV replic up: inactive; PKD1 inh: -4; HSV replic up primary fold: 0.88

What do the screens show for `O=C(Nc1ccon1)c1cc2c(s1)CCCCCC2`?
RGS16-Gao HTS: 101; HSV replic up: inactive; GALR2 ag: -0.2; Insulin prom inh: 33; PKD1 inh: -6; Insulin prom inh cell count: 114; HSV replic up primary fold: 0.89

How did Cc1nc2scc(-c3ccccc3)c2c(=O)n1N=C1C=CC(=O)C=C1 do in these assays?
RGS16-Gao HTS: 27; HSV replic up: inactive; Insulin prom inh: -344; PKD1 inh: 0; Insulin prom inh cell count: 2; HSV replic up primary fold: 1

Results for COc1ccc(OCC#CCN2CC(C)OC(C)C2)cc1 (centres undefined) ?
RGS16-Gao HTS: 94; HSV replic up: inactive; Insulin prom inh: 5; PKD1 inh: -9; Insulin prom inh cell count: 100; HSV replic up primary fold: 1

Results for N[C@@H](Cc1c[nH]c2ccccc12)C(=O)O ?
RGS16-Gao HTS: 100; HSV replic up: inactive; HSV replic up primary fold: 0.8

How did CCCCN(CCCC)Cc1ccc(N)cc1 do in these assays?
RGS16-Gao HTS: 111; HSV replic up: inactive; GALR2 ag: -2.1; Insulin prom inh: -3; PKD1 inh: -8; Insulin prom inh cell count: 159; HSV replic up primary fold: 1

How did Clc1ccc2nc(C3CCN(Cc4ccccc4)CC3)[nH]c2c1 do in these assays?
RGS16-Gao HTS: 100; HSV replic up: inactive; GALR2 ag: -0.6; Insulin prom inh: 42; PKD1 inh: -2; Insulin prom inh cell count: 95; HSV replic up primary fold: 1.1

Results for NC(N)=Nc1nc(-c2ccccc2)c2cc(F)ccc2n1 ?
RGS16-Gao HTS: 104; HSV replic up: inactive; PKD1 inh: 14; HSV replic up primary fold: 0.62

Results for COc1ccc(CNC(=O)c2ccc3c(=O)n(CCCN4CCCC4=O)c(=S)[nH]c3c2)cc1 ?
RGS16-Gao HTS: 95; HSV replic up: inactive; Insulin prom inh: 29; PKD1 inh: -3; Insulin prom inh cell count: 135; HSV replic up primary fold: 0.93

How did O=C(Cn1cc(C(F)(F)F)ccc1=O)NCCc1ccc(Cl)cc1Cl do in these assays?
RGS16-Gao HTS: 47; HSV replic up: inactive; GALR2 ag: 0.1; Insulin prom inh: -113; PKD1 inh: 9; Insulin prom inh cell count: 76; HSV replic up primary fold: 0.94

What do the screens show for `O=C(/C=C/c1ccco1)N1CCN(C/C=C/c2ccccc2)CC1`?
RGS16-Gao HTS: 105; HSV replic up: inactive; GALR2 ag: -0.2; PKD1 inh: -4; HSV replic up primary fold: 0.87

Results for CCN(CC)S(=O)(=O)c1cccc(N=NC2=C(O)CCCC2=O)c1 ?
RGS16-Gao HTS: 101; HSV replic up: inactive; GALR2 ag: -1.6; Insulin prom inh: 15; PKD1 inh: -6; Insulin prom inh cell count: 118; HSV replic up primary fold: 0.96

What do the screens show for `CCN(CC)S(=O)(=O)c1ccc(N2CCOCC2)c(NC(=O)COc2ccc(C#N)cc2)c1`?
RGS16-Gao HTS: 99; HSV replic up: inactive; HSV replic up primary fold: 1

How did CCN(CC)S(=O)(=O)c1cccc(C(=O)NN2Cc3ccccc3C2=N)c1 do in these assays?
RGS16-Gao HTS: 108; HSV replic up: inactive; GALR2 ag: -0.1; PKD1 inh: -1; HSV replic up primary fold: 0.98

Results for Cc1ccc2c(c1)/C(=N/O)CCS2 ?
RGS16-Gao HTS: 107; HSV replic up: inactive; GALR2 ag: -2.7; Insulin prom inh: -7; PKD1 inh: -1; Insulin prom inh cell count: 58; HSV replic up primary fold: 0.9

What do the screens show for `COc1ccc(N(CC(=O)Nc2cc(OC)ccc2OC)S(=O)(=O)c2c(C)nn(C)c2C)cc1`?
RGS16-Gao HTS: 101; GALR2 ag: -3.0; PKD1 inh: 4

Filtered by structure, those above containing a furan ring, fused or not (two)
How did C=CCOC(=O)C1=C(C)OC(N)=C(C#N)C1c1ccco1 (centres undefined) do in these assays?
RGS16-Gao HTS: 99; HSV replic up: inactive; HSV replic up primary fold: 0.94

What do the screens show for `O=C(/C=C/c1ccco1)N1CCN(C/C=C/c2ccccc2)CC1`?
RGS16-Gao HTS: 105; HSV replic up: inactive; GALR2 ag: -0.2; PKD1 inh: -4; HSV replic up primary fold: 0.87

Two compounds drawn at random from those above:
Results for Cc1ccc(S(=O)(=O)N2CCN(Cc3ccccc3C(F)(F)F)CC2)cc1 ?
RGS16-Gao HTS: 99; HSV replic up: inactive; GALR2 ag: -1.3; Insulin prom inh: 3; PKD1 inh: -3; Insulin prom inh cell count: 102; HSV replic up primary fold: 0.99

How did CCCCN(CCCC)Cc1ccc(N)cc1 do in these assays?
RGS16-Gao HTS: 111; HSV replic up: inactive; GALR2 ag: -2.1; Insulin prom inh: -3; PKD1 inh: -8; Insulin prom inh cell count: 159; HSV replic up primary fold: 1

(next part)
How did Cc1cc(Sc2nc(N(C)C)nc(N(C)C)n2)nc(Cl)n1 do in these assays?
RGS16-Gao HTS: 102; HSV replic up: inactive; PKD1 inh: 0; HSV replic up primary fold: 1.1

Results for CC(C)Oc1cccc(C(=O)C2CCCN(C(=O)c3ccoc3)C2)c1 (centres undefined) ?
RGS16-Gao HTS: 104; HSV replic up: inactive; PKD1 inh: 1; HSV replic up primary fold: 0.9

Results for O=C(c1ccccc1)c1ccc(C(=O)N2CCN(c3ccc(F)cc3)CC2)o1 ?
RGS16-Gao HTS: 106; HSV replic up: inactive; GALR2 ag: -2.9; Insulin prom inh: 10; PKD1 inh: 15; Insulin prom inh cell count: 100; HSV replic up primary fold: 0.97

What do the screens show for `O=C(Nc1ncc(C(F)(F)F)cc1Cl)C1COc2ccccc2O1` (centres undefined)?
RGS16-Gao HTS: 90; HSV replic up: inactive; GALR2 ag: -2.1; Insulin prom inh: 0; PKD1 inh: 12; Insulin prom inh cell count: 87; HSV replic up primary fold: 0.84

What do the screens show for `CCOC(=O)CN1C(=N)N(c2nc(NC(C)C)nc(OC)n2)CC1=O`?
RGS16-Gao HTS: 112; HSV replic up: inactive; HSV replic up primary fold: 1.2

How did CC1(C)CC2(CCO1)OC(=O)CC2C(=O)NCCc1ccccc1 (centres undefined) do in these assays?
RGS16-Gao HTS: 102; HSV replic up: inactive; GALR2 ag: -0.2; PKD1 inh: 5; HSV replic up primary fold: 0.91

How did Cc1nc2ccc(N)cc2s1 do in these assays?
RGS16-Gao HTS: 103; HSV replic up: inactive; GALR2 ag: -1.2; PKD1 inh: -4; HSV replic up primary fold: 1

Results for CCCc1cc(=O)[nH]c(SCC(=O)NC)n1 ?
RGS16-Gao HTS: 114; HSV replic up: inactive; GALR2 ag: -2.4; Insulin prom inh: -2; PKD1 inh: -7; Insulin prom inh cell count: 191; HSV replic up primary fold: 0.85

Results for CN(C)c1ccc(-c2nnn(CC(=O)Nc3ccc4c(c3)OCCO4)n2)cc1 ?
RGS16-Gao HTS: 105; HSV replic up: inactive; Insulin prom inh: 57; PKD1 inh: -10; Insulin prom inh cell count: 51; HSV replic up primary fold: 0.92

How did Cn1c(SCCN2CCCCC2)nnc1-c1ccccc1Br do in these assays?
RGS16-Gao HTS: 104; HSV replic up: inactive; GALR2 ag: -1.0; Insulin prom inh: -11; PKD1 inh: 2; Insulin prom inh cell count: 107; HSV replic up primary fold: 0.97

How did CC1C(=O)CCC1(C(=O)O)c1ccccc1 (centres undefined) do in these assays?
RGS16-Gao HTS: 118; HSV replic up: inactive; GALR2 ag: -3.2; PKD1 inh: 7; HSV replic up primary fold: 1.1

Results for CCOC(=O)c1c(C)[nH]c(C(=O)CN2C(=O)NC(C)(c3ccc(C)cc3)C2=O)c1C (centres undefined) ?
RGS16-Gao HTS: 111; HSV replic up: inactive; HSV replic up primary fold: 0.73

Results for COc1cccc(N=C2CC(C)(C)CC(=O)/C2=C(/O)c2ccccc2)c1 ?
RGS16-Gao HTS: 105; HSV replic up: inactive; PKD1 inh: -8; HSV replic up primary fold: 0.87

Results for CN(C)CC(c1ccccc1)c1ccccc1 ?
RGS16-Gao HTS: 99; HSV replic up: inactive; HSV replic up primary fold: 0.98

What do the screens show for `COc1ccc(OC2OC3COC(C)(C)OC3C(O)C2NC(C)=O)cc1` (centres undefined)?
RGS16-Gao HTS: 104; HSV replic up: inactive; GALR2 ag: -0.5; Insulin prom inh: 33; PKD1 inh: -12; Insulin prom inh cell count: 125; HSV replic up primary fold: 0.82

What do the screens show for `O=C(c1cc2c(s1)CCCC2)n1cccn1`?
RGS16-Gao HTS: 102; HSV replic up: inactive; GALR2 ag: -1.0; Insulin prom inh: -291; PKD1 inh: -11; Insulin prom inh cell count: 95; HSV replic up primary fold: 0.92

How did CCOc1cc(C(N)=O)cc(Br)c1OCc1ccccc1 do in these assays?
RGS16-Gao HTS: 100; HSV replic up: inactive; PKD1 inh: 2; HSV replic up primary fold: 0.85

What do the screens show for `CCOC(=O)C1=C(CNCc2ccc(C)cc2)NC(=O)NC1c1ccc(OC)cc1` (centres undefined)?
RGS16-Gao HTS: 101; HSV replic up: inactive; GALR2 ag: -0.8; Insulin prom inh: -20; PKD1 inh: -2; Insulin prom inh cell count: 75; HSV replic up primary fold: 0.87

What do the screens show for `CCCCSc1nnc(CCC)n1N`?
RGS16-Gao HTS: 102; HSV replic up: inactive; GALR2 ag: -1.5; Insulin prom inh: 44; PKD1 inh: -8; Insulin prom inh cell count: 77; HSV replic up primary fold: 0.99

How did CC(C)[C@H](CO)Nc1nc(NCc2ccc(S(N)(=O)=O)cc2)c2ncn(C(C)C)c2n1 do in these assays?
RGS16-Gao HTS: 101; HSV replic up: inactive; HSV replic up primary fold: 0.69

Results for CC(C)N=C(NC#N)SCC(=O)NC(C)(C)C ?
RGS16-Gao HTS: 101; HSV replic up: inactive; GALR2 ag: -1.6; PKD1 inh: 3; HSV replic up primary fold: 0.88

Results for CCOC(=O)C1CCCN(Cc2cn(C)nc2-c2ccc3c(c2)OCCO3)C1 (centres undefined) ?
RGS16-Gao HTS: 102; HSV replic up: inactive; PKD1 inh: 6; HSV replic up primary fold: 0.88

How did CCOc1ccc(NC(=S)C(C#N)=C2N(C)c3ccccc3N2C)cc1 do in these assays?
RGS16-Gao HTS: 101; HSV replic up: inactive; Insulin prom inh: 25; PKD1 inh: 1; Insulin prom inh cell count: 85; HSV replic up primary fold: 1.1

Results for O=C1C=C(NCCN2CCOCC2)CC(c2ccccc2)C1 (centres undefined) ?
RGS16-Gao HTS: 97; HSV replic up: inactive; GALR2 ag: -1.2; Insulin prom inh: 8; PKD1 inh: -16; Insulin prom inh cell count: 49; HSV replic up primary fold: 0.92

Results for O=C(COC(=O)CCc1ccc(S(=O)(=O)N2CCOCC2)cc1)NCc1ccc(Cl)cc1 ?
RGS16-Gao HTS: 96; HSV replic up: inactive; PKD1 inh: 11; HSV replic up primary fold: 1

How did CCSc1nnc(NC(=O)Cc2ccc(OC)cc2)s1 do in these assays?
RGS16-Gao HTS: 101; HSV replic up: inactive; GALR2 ag: -2.9; Insulin prom inh: 0; PKD1 inh: 9; Insulin prom inh cell count: 66; HSV replic up primary fold: 1

What do the screens show for `COc1cccc(C(=O)N2CCN(Cc3ccccc3C(F)(F)F)CC2)c1`?
RGS16-Gao HTS: 109; HSV replic up: inactive; GALR2 ag: -1.1; PKD1 inh: -9; HSV replic up primary fold: 0.95

Results for O=c1c(F)cn(C2CCCO2)c(=O)n1Cc1ccc(Cl)cc1 (centres undefined) ?
RGS16-Gao HTS: 104; HSV replic up: inactive; PKD1 inh: -2; HSV replic up primary fold: 1.1

Results for COC(=O)c1c(NC(=O)C2CCCCC2C(=O)O)sc2c1CCCCC2 (centres undefined) ?
RGS16-Gao HTS: 107; HSV replic up: inactive; Insulin prom inh: 39; PKD1 inh: 7; Insulin prom inh cell count: 161; HSV replic up primary fold: 0.96
